Screening results (PubChem)
T cruzi inh: blocks replication of Trypanosoma cruzi; inhibition, % (concentration not given with the values); hit rate 1.4% among 300,000; T. cruzi beta-gal in NIH3T3, luminescence, 90 h;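 active = mean inhibition across valid replicates above about 55%, limit read from the data; inconclusive = mean below that limit but half or more replicates reach it; inactive = mean below it, under half of replicates reach it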;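 also: signal also drops with host cell toxicity which is not excluded here; 0% = plate median of DMSO wells and 100% = zero luminescence signal; higher percent means less beta-gal luminescence so fewer parasites; stock transfer was 50 nL into about 50 µL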
A1 inh: inhibitors of the anti-apoptotic protein A1, read as caspase activation. MEF A1-2A-BIM cells, Caspase-Glo 3/7 luminescence, 3 h; percent of clofoctol response, vehicle zero. caspase activation, % (concentration not given with the values). hit rate 0.066% among 330,000;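 active = over half of replicate activation scores above 10%, or exactly half above 10 with the replicate mean above 10; inconclusive = replicate mean below 10 yet half the replicates above 10; inactive = over half of replicates below 10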;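 also: wells of about 30 µL received 50 nL stock; many hits fall short of the cut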
Calb FLC: affects C. albicans growth with fluconazole | C. albicans CaCi-2 (fluconazole-resistant clinical isolate) + fluconazole, Alamar Blue growth, 48 h | growth inhibition, % (concentration not given with the values) | hit rate 0.57% among 300,000;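 active = most replicates above 75%; inconclusive = exactly half above 75%; inactive = most below 75%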;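 also: all wells also contain fluconazole at 8 µg/ml as a sub-toxic cotreatment; 0% = median of DMSO wells and 100% = median of geldanamycin control wells; wells of about 8 µL received 7.5 nL stock; the first replicate is given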
LANA-H2B inh: blocks KSHV LANA binding to histone H2A/H2B; Q9QR71; cell-free LANA-H2A/H2B peptide, fluorescence polarization; inhibition, % (test concentration not listed); hit rate 0.6% among 320,000; AID 2629; in the data active = inhibition mostly above about 10%, no sharp cut-off; inactive = mostly below about 6.7%;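 also: stock transfer was 7.5 nL into about 10 µL; 0% = median of vehicle wells and 100% = median of positive control wells; one replicate is shown; the record names a cut of 25% in any replicate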
Target sequence (Q9QR71 whole entry, looked up): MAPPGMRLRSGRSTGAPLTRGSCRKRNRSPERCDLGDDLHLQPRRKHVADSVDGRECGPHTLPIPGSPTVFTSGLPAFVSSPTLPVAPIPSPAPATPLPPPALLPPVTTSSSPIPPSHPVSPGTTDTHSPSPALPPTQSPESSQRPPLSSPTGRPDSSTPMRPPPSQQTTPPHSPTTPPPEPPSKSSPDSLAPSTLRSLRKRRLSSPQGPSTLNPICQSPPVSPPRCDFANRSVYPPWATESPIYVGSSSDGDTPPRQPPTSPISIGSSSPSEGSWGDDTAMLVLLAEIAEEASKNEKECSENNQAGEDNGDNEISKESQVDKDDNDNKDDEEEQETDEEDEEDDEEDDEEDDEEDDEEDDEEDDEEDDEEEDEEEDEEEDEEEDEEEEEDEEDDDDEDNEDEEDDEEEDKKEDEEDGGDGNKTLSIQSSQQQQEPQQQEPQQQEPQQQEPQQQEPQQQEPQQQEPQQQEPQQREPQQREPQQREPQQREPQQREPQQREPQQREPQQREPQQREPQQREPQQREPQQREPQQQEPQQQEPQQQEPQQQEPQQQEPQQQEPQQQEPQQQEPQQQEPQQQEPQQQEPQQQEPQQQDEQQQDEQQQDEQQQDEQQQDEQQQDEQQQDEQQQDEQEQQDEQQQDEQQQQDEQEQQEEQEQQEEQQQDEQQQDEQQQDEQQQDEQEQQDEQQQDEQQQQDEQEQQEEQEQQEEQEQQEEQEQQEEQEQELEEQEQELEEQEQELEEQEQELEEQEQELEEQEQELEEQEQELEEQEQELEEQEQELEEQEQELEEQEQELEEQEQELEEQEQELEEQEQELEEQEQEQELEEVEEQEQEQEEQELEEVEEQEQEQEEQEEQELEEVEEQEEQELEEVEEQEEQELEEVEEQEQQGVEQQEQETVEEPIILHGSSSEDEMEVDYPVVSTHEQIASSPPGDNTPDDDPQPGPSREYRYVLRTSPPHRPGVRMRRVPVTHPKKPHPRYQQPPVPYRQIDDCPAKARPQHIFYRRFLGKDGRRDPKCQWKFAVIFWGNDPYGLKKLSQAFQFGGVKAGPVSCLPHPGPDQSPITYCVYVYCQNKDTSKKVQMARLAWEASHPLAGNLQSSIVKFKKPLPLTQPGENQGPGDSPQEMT
Beta apoptosis: beta cell apoptosis inhibition. INS-1E cytokine-induced death, ATP luminescence, 48 h; percent of positive-control rescue, neutral wells zero. protection from apoptosis, % (test concentration not listed). hit rate 0.8% among 300,000. AID 435005;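 active = all replicates at 75% or more, or half of them and the mean; inconclusive = half reach 75% but not the mean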;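 also: 0% = cytokine-treated negative control wells and 100% = positive control rescue; higher means more ATP so stronger rescue from cytokine killing; wells of about 40 µL received 100 nL stock; the first replicate is given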
RanGTP-Impb inh: inhibitors of RanGTP-importin-beta interaction, primary screen, biochemical, FRET, CFP-Ran, YFP-importin-beta, homogeneous; hit rate 1.1% among 300,000; AID 2216; cell-free CFP-Ran/YFP-importin-beta FRET ratio; inhibition, % (no concentration beside the values);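 active = most replicates above 15%; inconclusive = exactly half above 15%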;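 also: 0% = DMSO wells and 100% = Ran loaded with GDP instead of GTP; wells of about 40 µL received 100 nL stock; the first replicate is given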
* hit, by the source's call. Some of the compounds tested, so the mix of outcomes need not match the whole.

Results for CCOC(=O)c1ccccc1NC(=O)Cn1cnc2c(cnn2-c2ccc(OC)cc2)c1=O ?
A1 inh: 0.0; LANA-H2B inh: -1.7

How did COCCn1nnnc1C1(N(Cc2cc3cc(C)ccc3[nH]c2=O)CC2CCCO2)CCN(C)CC1 (stereo not given) do in these assays?
A1 inh: 1.1; LANA-H2B inh: -2.1

How did C[S+](CC[C@H](N)C(=O)O)C[C@H]1O[C@@H](n2cnc3c(N)ncnc32)[C@H](O)[C@@H]1O (stereo not given in full) do in these assays?
A1 inh: 0.3; LANA-H2B inh: -1.0

How did O=C(NC(=O)c1ccc(Cl)cc1)Nc1cc(N2CCCCC2)ncn1 do in these assays?
A1 inh: 0.8; LANA-H2B inh: -1.9

Results for Cc1sc2nc(CN(CCc3ccccc3)C(=O)c3ccco3)[nH]c(=O)c2c1C ?
A1 inh: 0.2; LANA-H2B inh: 10.6

What do the screens show for `COc1ccc(NC(=O)N(Cc2cccnc2)Cc2ccccc2Cl)c(OC)c1`?
T cruzi inh: 34.5; Calb FLC: -7.2; RanGTP-Impb inh: -2.9

Results for COc1ccc(-c2ccc(/C=N/NC(=O)c3cccnc3)o2)c([N+](=O)[O-])c1 ?
T cruzi inh: 8.0; Calb FLC: -1.7; RanGTP-Impb inh: -30.6

What do the screens show for `C#CCOCCOCCOCCNc1nc(N2CCN(C(=O)[C@H](CCC(=O)O)n3cc(C(N)CO)nn3)CC2)nc(N2CCN(C(=O)[C@H](CCCCN)n3cc(C(N)CC(C)C)nn3)CC2)n1` (stereo not given in full)?
T cruzi inh: -18.8; Calb FLC: -13.3; RanGTP-Impb inh: 1.9

What do the screens show for `C#CCOCCOCCOCCNc1nc(N2CCN(C(=O)C(Cc3cc4ccccc4[nH]3)n3cc(C(N)Cc4ccc(O)cc4)nn3)CC2)nc(N2CCN(C(=O)C(Cc3cc4ccccc4[nH]3)n3cc(C(N)Cc4ccc(O)cc4)nn3)CC2)n1` (stereo not given)?
T cruzi inh: -17.4; Calb FLC: 8.1; RanGTP-Impb inh: 1.5

How did COc1ccc2nc(N=Nc3c(O)ccc4ccccc34)sc2c1 do in these assays?
T cruzi inh: -0.5; Calb FLC: -3.4; RanGTP-Impb inh: -0.9

Results for COc1ccc(-c2cccc(C3CC=CC4C3C(=O)N(Cc3ccccc3)C4c3cc(C)ccc3F)c2)cc1 (stereo not given) ?
T cruzi inh: 22.9; Calb FLC: -13.2; RanGTP-Impb inh: inconclusive

Results for CCOC(=O)c1cccc(-n2c(-c3ccc(OC)cc3)nc3nc4ccccc4nc32)c1 ?
T cruzi inh: 30.0; Calb FLC: -3.7; RanGTP-Impb inh: 0.7

Results for FC(F)(F)c1ccc(CN2C[C@@H]3C(c4ccccc4)C4(c5ccccc5)CC3(C4)[C@H]2c2ccccc2)cc1 (stereo not given in full) ?
T cruzi inh: 39.0; Calb FLC: -4.0; RanGTP-Impb inh: -2.0

How did COc1cc(O)c(C(CC(=O)N2CCCCC2)c2ccc(N(C)C)cc2)c(OC)c1 (stereo not given) do in these assays?
T cruzi inh: -9.8; Calb FLC: -1.2; RanGTP-Impb inh: -4.1

What do the screens show for `C#CCOCCOCCOCCNc1nc(N2CCN(C(=O)[C@H]([C@@H](C)CC)n3cc(CCCN=C(N)N)nn3)CC2)nc(N2CCN(C(=O)[C@H]([C@@H](C)CC)n3cc(CCCN=C(N)N)nn3)CC2)n1`?
T cruzi inh: 23.7; Calb FLC: -13.1; RanGTP-Impb inh: 11.2

What do the screens show for `C=CC(=O)N1C/C=C\C(c2ccc(OC)cc2)N(Cc2ccc(F)cc2)C(=O)C1` (stereo not given)?
T cruzi inh: -2.1; Calb FLC: -2.7; RanGTP-Impb inh: 2.1

Results for C[N+](C)(C)C(Cc1c[nH]c2ccccc12)C(=O)[O-] (stereo not given) ?
T cruzi inh: -6.5; Calb FLC: 8.4; RanGTP-Impb inh: 1.0

Results for C#CCOCCOCCOCCNc1nc(N2CCN(C(=O)[C@H](CCC(=O)O)n3cc(C(N)CO)nn3)CC2)nc(N2CCN(C(=O)[C@H](CCCCN)n3cc(C(N)[C@H](C)CC)nn3)CC2)n1 (stereo not given in full) ?
T cruzi inh: -15.0; Calb FLC: -4.4; RanGTP-Impb inh: 0.7

What do the screens show for `COc1cc(NC(=O)c2ncn[nH]2)cc(OC)c1OC`?
T cruzi inh: -20.5; Calb FLC: 5.3; RanGTP-Impb inh: 0.5

Results for O=C(Cn1cnc(S(=O)(=O)N2CCCCC2)c1)NCc1ccco1 ?
T cruzi inh: -14.3; Calb FLC: 1.0; RanGTP-Impb inh: -1.1

Results for C#CCOCCOCCOCCNc1nc(N2CCN(C(=O)C([C@@H](C)CC)n3cc(C(N)CO)nn3)CC2)nc(N2CCN(C(=O)[C@H](CCC(=O)O)n3cc(C(N)[C@H](C)CC)nn3)CC2)n1 (stereo not given in full) ?
T cruzi inh: -7.8; Calb FLC: -11.6; RanGTP-Impb inh: 2.4

Results for CCOCCn1cnc2sc(C(=O)Nc3nc(C)c(C(=O)OCC)s3)c(C)c2c1=O ?
A1 inh: -8.0; Calb FLC: -2.4; LANA-H2B inh: -3.6

How did O=C(c1ccccc1)c1c2c(cc3sc4ccccc4[n+]13)-c1cccc3cccc-2c13 do in these assays?
A1 inh: -0.3; LANA-H2B inh: 0.2; Beta apoptosis: 98.4*

How did COc1ccc(NC(=O)N(C)C[C@H]2Oc3c(NC(=O)Cc4ccccc4)cccc3C(=O)N([C@H](C)CO)C[C@@H]2C)cc1 do in these assays?
A1 inh: 2.9; LANA-H2B inh: 2.5; Beta apoptosis: -2.5

What do the screens show for `CC(C)OCC1CO1` (stereo not given)?
A1 inh: -0.3; LANA-H2B inh: -13.5; Beta apoptosis: -2.6

What do the screens show for `COc1cc(NC(=O)[C@@H]2CCCN2S(=O)(=O)c2cccc3cccnc23)cc(OC)c1OC`?
A1 inh: 0.4; LANA-H2B inh: 2.6; Beta apoptosis: -1.8

What do the screens show for `CC(C)(C)OC(=O)C[C@@H]1C/C=C\C[C@@H](CC(=O)N(CCO)Cc2ccccc2)C(=O)N[C@H](Cc2c[nH]c3ccccc23)COC1=O`?
A1 inh: -0.1; LANA-H2B inh: -3.0; Beta apoptosis: -1.4

What do the screens show for `CCOC(=O)c1ccc(-c2ccc(/C=C(\C#N)C(=O)NCc3cccs3)o2)cc1`?
A1 inh: 0.1; LANA-H2B inh: -1.2; Beta apoptosis: -0.3

Results for Cc1ccc(C(=O)c2nc(C(=O)NCCO)nc3ccccc23)cc1 ?
A1 inh: 0.0; LANA-H2B inh: 2.3; Beta apoptosis: -17.8

Results for O=c1c(-c2c(O)cc(O)c3c2O[C@H](c2ccc(O)cc2)CC3)c(-c2ccc(O)cc2)oc2cc(O)cc(O)c12 ?
A1 inh: -1.7; LANA-H2B inh: 5.4; Beta apoptosis: 1.6

What do the screens show for `C[C@H](NC(=O)c1[nH]cnc1C(=O)Nc1ccccc1)c1ccccc1`?
A1 inh: -0.4; LANA-H2B inh: -2.0; Beta apoptosis: -2.2

How did O=C(NCc1ccco1)C1Cc2ccccc2CN1S(=O)(=O)c1ccccc1F (stereo not given) do in these assays?
A1 inh: -0.6; LANA-H2B inh: 2.2; Beta apoptosis: -3.5

How did Cc1ccc(S(N)(=O)=O)cc1 do in these assays?
A1 inh: -0.2; LANA-H2B inh: 0.0; Beta apoptosis: -3.8

What do the screens show for `CCOc1ccc(/C=N/NC(=O)c2ccc(O)cc2)cc1CN1CC2CC(C1)c1cccc(=O)n1C2` (stereo not given)?
A1 inh: 0.4; LANA-H2B inh: -1.4; Beta apoptosis: -1.5

Results for CS(=O)(=O)C1=NSC2=NC(=O)/C(=C\c3ccc(-c4ccccc4)o3)C(=N)N21 ?
A1 inh: 0.2; LANA-H2B inh: -6.2; Beta apoptosis: 1.9

What do the screens show for `COC(=O)c1[nH]c2cc(OC)c(OC)cc2c1NC(=O)CN1C[C@H]2C[C@@H](C1)c1cccc(=O)n1C2`?
A1 inh: 0.2; LANA-H2B inh: -1.6; Beta apoptosis: 3.1

What do the screens show for `c1ccc(NC2=NCCN2CC2CCC2)cc1`?
A1 inh: 0.6; LANA-H2B inh: 0.7; Beta apoptosis: -7.0

How did CCOc1cccc(N)c1 do in these assays?
A1 inh: -0.1; LANA-H2B inh: 1.2; Beta apoptosis: -4.1

How did CC(C)(C)OC(=O)NCCCCCNC(=O)c1nc[nH]c1C(=O)N1CCN(c2ccccc2)CC1 do in these assays?
A1 inh: -0.4; LANA-H2B inh: 1.5; Beta apoptosis: -3.1

How did CN(C)c1ccc(C#Cc2ccc3cc(CCO)oc(=O)c3c2)cc1 do in these assays?
A1 inh: -0.5; LANA-H2B inh: -0.2; Beta apoptosis: 0.2

How did Cc1[nH]c2ccccc2c1/C=N/Nc1ccc(F)cc1F do in these assays?
A1 inh: -1.0; LANA-H2B inh: 3.3; Beta apoptosis: -2.9

Results for CC(=O)NC(c1ccco1)c1cc(Cl)c2ccc(Cl)nc2c1O (stereo not given) ?
A1 inh: 1.0; LANA-H2B inh: 2.4; Beta apoptosis: -17.7

How did CCOC(=O)[C@@H]1[C@H]2COc3ccccc3[C@H]2N2C(=O)N(c3cccc(C)c3)C(=O)[C@]12C do in these assays?
A1 inh: 1.5; LANA-H2B inh: -0.5; Beta apoptosis: -14.5

Results for CC(=O)Nc1ccc(N)cc1 ?
A1 inh: -0.3; LANA-H2B inh: 1.1; Beta apoptosis: -0.8

Results for C/C(=N\NC(=O)c1cccc(N/N=C(\C)c2ccccc2)c1)c1ccccc1 ?
A1 inh: -2.7; LANA-H2B inh: 2.8; Beta apoptosis: -5.5

What do the screens show for `CCCNC(=O)C(Cc1ccccc1C)NC(=O)c1ccc(C(F)(F)F)cc1` (stereo not given)?
A1 inh: 2.7; LANA-H2B inh: -5.2; Beta apoptosis: -1.8

What do the screens show for `CC(C)C[C@H]1CN=C(N(C)C)N1CC(C)C`?
A1 inh: -1.0; LANA-H2B inh: 1.2; Beta apoptosis: 0.2

How did O=C1C=C(c2cccc(Cl)c2O)C[C@@H](c2ccc(Cl)cc2)C1 do in these assays?
A1 inh: -0.3; LANA-H2B inh: 2.6; Beta apoptosis: -1.4

How did CCCNC(=O)C(Cc1ccc(OC)cc1)NC(=O)c1ccc(C#N)cc1 (stereo not given) do in these assays?
A1 inh: 0.2; LANA-H2B inh: 4.1; Beta apoptosis: -0.1

How did C[C@@H]1NS(=O)(=O)[C@H]2C[C@@H]3C=C[C@]2(O3)[C@H]1OC(=O)Nc1ccc(C(F)(F)F)cc1[N+](=O)[O-] do in these assays?
A1 inh: 1.2; LANA-H2B inh: -0.8; Beta apoptosis: -7.0

What do the screens show for `CCC[C@@H](CN1CCC[C@H]1CN1C(N)=NC[C@@H]1Cc1ccccc1)N1C[C@@H]([C@H](C)CC)N(CCCC2CCCC2)C1=N`?
A1 inh: -0.2; LANA-H2B inh: 2.8; Beta apoptosis: 100.6*

What do the screens show for `Cn1cncc1C#Cc1c(-c2ccsc2)sc2ccccc12`?
A1 inh: 0.3; LANA-H2B inh: 2.4; Beta apoptosis: -6.2

How did CC(C)C[C@H]1CN=C(Nc2ccccc2)N1CC1CCC(C(C)(C)C)CC1 (stereo not given in full) do in these assays?
A1 inh: 0.6; LANA-H2B inh: -0.1; Beta apoptosis: 110.7*

How did Cc1cccc(N2C(=O)N3[C@H]4c5ccccc5OC[C@@H]4[C@@H](c4ccccc4)[C@@]3(C)C2=O)c1 do in these assays?
A1 inh: 3.1; LANA-H2B inh: 2.0; Beta apoptosis: -3.0

What do the screens show for `CC(C)(OC(=O)c1ccc(C(F)(F)F)cc1)c1cc2ccccc2c(=O)o1`?
A1 inh: -0.5; LANA-H2B inh: 3.1; Beta apoptosis: -2.4

How did O=C(C[C@@H]1C/C=C\CCC(=O)OC[C@@H]2CCCN2C1=O)N[C@H](CO)Cc1ccccc1 do in these assays?
A1 inh: -0.1; LANA-H2B inh: -7.3; Beta apoptosis: -0.3

What do the screens show for `O=C(NCCOc1ccccc1)c1cccc2c1C(=O)c1ccc(Cl)cc1S2(=O)=O`?
A1 inh: -0.3; LANA-H2B inh: 1.7; Beta apoptosis: -7.0

What do the screens show for `CCC(=O)C(C#N)(c1ccc(OC)c(OC)c1)C(C)C` (stereo not given)?
A1 inh: -0.2; LANA-H2B inh: 2.6; Beta apoptosis: 0.6
